Source: PubChem BioAssay (Broad Institute)
Hedgehog inh – Hedgehog pathway signaling inhibitors, primary screen, luminescence, Shh-LIGHT2 cells, Gli-luciferase | Shh-LIGHT2 Gli-luciferase reporter, 30 h | inhibition, % (no concentration beside the values) | actives 2.1% (n = 22,000);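 active = replicate mean of 65% or more; inconclusive = mean lower but half the replicates past it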;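 also: pathway switched on by Shh-conditioned medium diluted 1 in 25 in low serum; 100 nL library stock added to about 40 µL; 0% = median of neutral wells and 100% = positive control level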
PD-1 reverse act – activators reversing PD-1 mediated T-cell inhibition, primary screen, luminescence, primary human CD4 T cells, PD-L1 beads | 29,000 tested, under 10 active | CellTiter-Glo 96 h | activation, % (concentration not given with the values) | AID 2316, 2010;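 active = replicate mean of 50% or more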;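 also: 0% = median vehicle wells and 100% = positive control; 100 nL library stock added to about 50 µL; numbers are from one replicate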
YB-1 expression – inhibitors of YB-1 gene expression, primary screen, cell-based, fluorescence; U2OS, qRT-PCR YB-1 vs CDIP delta delta Cp, 16 h; hits give high values; zero = DMSO, each unit about twofold; actives 0.37% (n = 30,000); delta delta Cp (YB-1 minus CDIP) (no concentration beside the values);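 active = delta delta Cp rounded down to an integer at or above 3, about 3 SD of DMSO wells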;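 also: higher means less YB-1 transcript or more CDIP transcript relative to DMSO; stock transfer was 100 nL into about 100 µL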
MITF inhib – inhibitors of MITF, primary screen, MITF inhibitor project, cell-based, luminescence. TRPM1 promoter luciferase, 24 h. inhibition, % (test concentration not listed). actives 0.28% (n = 37,000). AID 2240, 2010;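 active = most replicates at 85% or more, or half of them and the mean; inconclusive = half reach 85% but not the mean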;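 also: human melanocyte line stably carrying TRPM1 promoter luciferase reporter; 0% = vehicle wells and 100% = a positive control; the first replicate is given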
Starred values were filed as active, the others as inactive; ? = inconclusive; nt = not tested or not shown. These rows are one share of the data (hit frequency here may not be typical).

SMILES	Hedgehog inh	PD-1 reverse act	YB-1 expression	MITF inhib
CCCCCc1cc(OC)c(CC=C(C)C)c(O)c1C(=O)O	-17	nt	-0.24	nt
CC(=O)OC[C@]12CCC(C)=CC1O[C@@H]1[C@H](O)[C@@H](O[C@H]3O[C@H](CO)[C@@H](O)[C@H](O)[C@H]3O)[C@@]2(C)C12CO2 (stereo partly specified)	50	nt	1.7	nt
C/C=C(/C)C(=O)OC1CCN2CC=C(COC(=O)C(O)(C(C)O)C(C)(C)O)C12 (stereo unspecified)	-3	3.7	-0.086	9
CN1C(=O)COc2c(C(=O)NC3CN4CCC3CC4)cc(Cl)cc21 (stereo unspecified)	-54	7.2	0.51	-16
C[C@]12CCC(=O)C=C1CC[C@@H]1C2CC[C@]2(C)C(=O)CCC12 (stereo partly specified)	0	-1.2	0.4	-17
CCNc1nc(Cl)nc(NCC)n1	-77	nt	0.14	-12
Nc1ncnc2nc(SCc3nc4ccc(I)cc4c(=O)n3-c3ccccc3)[nH]c12	nt	0.2	nt	1
COc1ccc(Cl)cc1NC1=NCC(C)S1 (stereo unspecified)	-38	-0.7	10*	-7
CC=C1CN2C3CC1C1(C(=O)OC)C2CC2(c4ccccc4N(C)C32)C1O (stereo unspecified)	12	4.1	0.25	4
C[C@]1(C(=O)O)CCC[C@]2(C)c3cc(O)ccc3CC[C@@H]12	-49	nt	0.8	nt
C=C[C@H]1CN2CC[C@H]1C[C@@H]2[C@H](O)c1ccnc2ccccc12	-10	nt	0.15	-13
O=C1CC=C2C3CC4N(CCC45c4ccccc4N1C25)C/C3=C/CO (stereo unspecified)	16	0.5	10*	7
CSc1nc2ccccc2c(=O)n1-c1cccnc1	-16	0.1	0.41	10
CC(=O)Nc1ccc(Cc2ccc(NC(C)=O)cc2)cc1	-39	-0.7	-1.7	-11
CCc1ccc(CN2CCN(Cc3cccc(OC)c3)CC2)cc1	nt	0.0	-0.071	1
c1ccc(C2CC2)c(OCC2=NCCN2)c1	-29	nt	-0.081	5
COc1ccc2c(c1)[nH]c1c(C)nccc12	5	0.8	0.32	-14
CN1C(=O)c2ccccc2NC(=O)C1Cc1ccccc1 (stereo unspecified)	-25	0.9	-0.049	-3
C=C(C)[C@H]1O[C@H]2CC[C@@]3(C)[C@@](O)(CC[C@H]4[C@@H]5OC(C)(C)[C@H]6C[C@@H]7C(=C)Cc8c(Cl)cc9[nH]c(c5c9c8[C@@]76O)[C@@]43C)[C@]23O[C@@H]3[C@H]1O	-12	nt	-0.57	52
CC(C)C(O)(C(=O)OCC1=CCN2CCC(O)C12)C(C)O (stereo unspecified)	3	nt	-0.12	nt
O=C(O)C1C2CCC(O2)C1C(=O)NCCc1ccccc1 (stereo unspecified)	nt	-12	nt	32
N#CC(C#N)=Cc1ccc(O)c(O)c1	?	-1.5	-0.22	1
Cc1cccc(C)c1OC(=O)Cc1ccccc1	nt	-1.3	-0.06	-9
CC(=O)NC1C(OC2OC(CC(O)C3OC(n4ccc(=O)[nH]c4=O)C(O)C3O)C(O)C(O)C2NC(=O)/C=C/CCCCCCCCCC(C)C)OC(CO)C(O)C1O (stereo unspecified)	108*	-3.9	-0.4	60
CCCN(CCC)C1CCc2ccc(O)cc2C1 (stereo unspecified)	-40	nt	0.33	-5
Following part:
SMILES	Hedgehog inh	PD-1 reverse act	YB-1 expression	MITF inhib
CCN1CC2(COC)CCC(O)C34C5CC6C(OC)CC(O)(C5C6O)C(C(OC)C23)C14 (stereo unspecified)	-17	0.0	1.5	-2
C=C1C/C(=C/C)C(=O)O[C@@H]2CCN3CC=C(COC(=O)[C@]1(C)O)[C@H]23	-65	3.9	-0.14	-19
O=P1(Nc2ccc(F)cc2)COc2ccccc2OC1	-35	0.0	-0.26	14
NC(N)=NC(N)=Nc1ccc(Cl)cc1	-4	-0.7	-0.95	0
CCc1nc2ccccc2c(=O)n1-c1ccccc1Cl	-32	0.5	-0.19	25
CC(C)c1cc2c(cc1O)[C@@]1(C)C[C@@H](O)CC(C)(CO)C1CC2 (stereo partly specified)	-4	1.1	-0.14	-7
CN1Cc2c(ccc3c2OCO3)C2C(O)Cc3cc4c(cc3C21)OCO4 (stereo unspecified)	82*	nt	-0.8	23
C=CC1CN2CCC3(C(=O)Nc4ccccc43)C2CC1/C(=C/OC)C(=O)OC (stereo unspecified)	10	2.0	-0.035	5
CCOP(=S)(OCC)Oc1ccc2c(C)c(Cl)c(=O)oc2c1	10	nt	-0.19	-28
CC(C)(C)C(=O)C(Oc1ccc(Cl)cc1)n1cncn1 (stereo unspecified)	4	nt	0.72	-3
CC(C)(C)NC[C@H](O)COc1cccc2[nH]c(C#N)cc12	8	8.8	0.23	-7
CC(Cc1ccccc1)[n+]1cc(/N=C(\N)[O-])on1 (stereo unspecified)	-2	7.8	0.17	-8
COc1ccc(CC2(CCc3ccncc3)C(=O)NC(=O)N(c3ccc(Cl)cc3)C2=O)cc1OC (stereo unspecified)	nt	-0.8	nt	-6
CCN1C[C@]2(COC)CC[C@H](O)[C@]34C1[C@H](C[C@H]23)[C@@]1(O)C[C@H](OC)[C@H]2C[C@@H]4[C@@H]1[C@H]2OC(C)=O	-47	nt	-0.24	-1
COC1=C[C@@H]2[C@@H]3Cc4ccc(OC)c(O)c4[C@]2(CCN3C)CC1=O	-29	nt	0.17	-24
Cn1cnc(-n2oo2)c1C#N	-38	4.0	-0.59	29
OC1CCCCC1N1CCC(c2ccccc2)CC1 (stereo unspecified)	-31	nt	0.1	3
O=c1ccc2cc(OC3O[C@H](CO)[C@@H](O)[C@H](O)[C@H]3O)c(O)cc2o1 (stereo partly specified)	-58	-1.4	0.68	-6
Cc1nccc2c1[nH]c1ccccc12	-37	1.1	0.19	-1
C=C[C@H]1CN2CC[C@H]1C[C@H]2[C@H](O)c1ccnc2ccccc12	4	nt	-0.075	2
C/C=C(/C)C(=O)O[C@H]1C(C)=C2[C@H]([C@@H]1OC(=O)CCCCCCC)[C@@](C)(OC(C)=O)C[C@H](OC(=O)CCC)[C@@]1(O)[C@H]2OC(=O)[C@@]1(C)O	103*	nt	-0.57	105*
CCOC(=O)CN1C(=O)CC(C[C@@H](O)C2C[C@@H](C)C[C@H](C)C2=O)CC1=O (stereo partly specified)	-10	2.6	0.34	-8
C=CC(C)(C)[C@]12C=C(OC)C(=O)N3/C(=C/c4cnc[nH]4)C(=O)N[C@@]31N(OC)c1ccccc12	-4	-0.3	-0.079	11
COc1ccc2[nH]cc(CCN)c2c1	38	3.7	0.5	3
CC(C)(C)c1nc2ccccc2c(=O)n1-c1ccc(F)cc1F	1	-1.1	-0.17	2

Three entries out of the list, ordered by molar mass, descending:
SMILES	Hedgehog inh	PD-1 reverse act	YB-1 expression	MITF inhib
CC(C)c1cc2c(cc1O)[C@@]1(C)C[C@@H](O)CC(C)(CO)C1CC2 (stereo partly specified)	-4	1.1	-0.14	-7
CSc1nc2ccccc2c(=O)n1-c1cccnc1	-16	0.1	0.41	10
COc1ccc2c(c1)[nH]c1c(C)nccc12	5	0.8	0.32	-14

The list continues:
SMILES	Hedgehog inh	PD-1 reverse act	YB-1 expression	MITF inhib
CCCN(C/C=C/I)C1CCc2ccc(O)cc2C1 (stereo unspecified)	?	nt	-0.35	-12
C=C1C(=O)O[C@@H]2[C@H]3C(=C)[C@@H](O)C[C@H]3C(=C)C[C@@H](O)[C@@H]12	-10	-4.7	0.021	-3
COc1ccc2[nH]cc(CCNCc3ccc(Br)cc3)c2c1	52	nt	0.28	-14
COc1ccc2c3c4n(c2c1)[C@@H](C=C(C)C)OOC(C)(C)C[C@@H]4N1C(=O)[C@@H]2CCCN2C(=O)[C@]1(O)[C@H]3OCC=C(C)C	12	-1.4	-0.78	30
COC(=O)c1ccc(OP2(=O)COc3ccccc3OC2)cc1	-12	1.2	-0.094	-3
COc1cc(C(=O)OC2C[C@H]3CC[C@@H](C2)N3C)ccc1O (stereo partly specified)	-9	nt	-0.19	-2
CC(C)N1C(=O)c2ccccc2NS1(=O)=O	-44	nt	-0.19	-17
C[C@]12C=CC(=O)C=C1CC[C@@H]1C2CC[C@]2(C)C(=O)CCC12 (stereo partly specified)	-5	-1.5	1.5	-16
COC(=O)CC1=C(C(=O)OC)C2(C(=O)Nc3ccccc32)C(C(=O)OC)=C(N)O1 (stereo unspecified)	-4	-0.7	-0.089	9
CC[C@@]12CCCN3CC[C@]4(c5cccc(OC)c5N(C(C)=O)[C@@H]4CC1)[C@H]32	-9	1.5	0.14	-2
COc1cc2c3cc1Oc1cc(ccc1O)C[C@@H]1c4c(cc(OC)c(O)c4Oc4cccc(c4)C[C@@H]3N(C)CC2)CC[N+]1(C)C	14	0.5	-0.32	6
CN1C(=O)CN=C(c2ccccc2)c2cc(Cl)ccc21	16	nt	-0.13	7
Cc1nn(Cc2cccc(C(=O)Nc3ccc4oc(=O)cc(C(F)(F)F)c4c3)c2)c(C)c1Cl	nt	2.0	nt	15
C=CCN1CC[C@]23c4c5ccc(O)c4O[C@H]2C(=O)CC[C@@]3(O)[C@H]1C5	-25	5.0	-0.033	-15
COC1CC(OC2CCC3(C)C(CCC4(O)C3CC(OC(=O)c3ccccc3)C3(C)C(O)(C(C)=O)CCC43O)C2)OC(C)C1OC1CC(OC)C(OC2OC(C)C(O)C(OC)C2O)C(C)O1 (stereo unspecified)	-2	1.6	-0.082	-7
Oc1c(Cl)c(Cl)c(Cl)c(Cl)c1Cl	24	nt	0.29	15
COc1ccc2[nH]c3c(c2c1)CCN=C3C	16	nt	0.026	34
Clc1ccc(C(OCCN2CCCCC2)c2ccccc2)cc1 (stereo unspecified)	23	nt	0.54	3
CO[C@H]1C=C2CCN(C)[C@H]2C2c3cc4c(cc3C(=O)O[C@@H]21)OCO4 (stereo partly specified)	7	nt	0.29	3
COc1ccc2c(c1O)-c1c3c(cc4c1C(C2)N(C)CC4)OCO3 (stereo unspecified)	5	nt	-0.073	nt
CN1C2C[C@H](OC(=O)[C@H](CO)c3ccccc3)C[C@H]1[C@@H](O)C2	12	nt	0.03	-14
C=CC(C)(C)[C@@]12C[C@H]3C(=O)N/C(=C\c4cnc[nH]4)C(=O)N3[C@@H]1Nc1ccccc12	9	-0.2	0.43	-11
CCCCC/C=C\C/C=C\C/C=C\CCCCCCC(=O)NCCO	-3	nt	-0.05	-2
COc1ccc2c(c1)[C@]13CCCC[C@H]1[C@H](C2)N(C)CC3	20	nt	0.0034	6
CC1(C)CCC[C@]2(C)c3cc(O)c(O)cc3C(=O)CC12 (stereo partly specified)	2	nt	0.48	nt
Next section:
SMILES	Hedgehog inh	PD-1 reverse act	YB-1 expression	MITF inhib
COCc1cc(OC(=O)N(C)C)nc(-c2ccncc2)n1	nt	-1.3	-0.47	-21
COc1cc(C(=O)O[C@H]2[C@@H]3C=CO[C@@H](O[C@@H]4O[C@H](CO)[C@@H](O)[C@H](O)[C@H]4O)[C@@H]3[C@@]3(CO)O[C@@H]23)ccc1O	-26	2.9	1	-17
CCCCOC(=O)c1ccccc1C(=O)OCc1ccccc1	-69	nt	0.24	-1
O=c1c2ccccc2[nH]c(=S)n1-c1cc(C(F)(F)F)cc(C(F)(F)F)c1	18	-1.0	0.18	9
Cc1cc(Br)c(NC(=O)C2C(C)(C)C2(C)C)c(Br)c1	65*	-5.2	-0.34	11
CNC(=O)N(C)c1nnc(C(C)(C)C)s1	-8	nt	-0.2	5
CCOC(=O)C1=C(N)Oc2c(c(=O)oc3ccccc23)C12C(=O)N(CC(=O)OC)c1ccccc12 (stereo unspecified)	-9	-0.2	-0.56	5
CC(C)N(C(=O)SCC(Cl)=C(Cl)Cl)C(C)C	-6	nt	0.27	7
CC(=O)O[C@H]1C[C@H](O[C@H]2[C@@H](O)C[C@H](O[C@H]3[C@@H](O)C[C@H](O[C@H]4CC[C@@]5(C)C(CCC6C5C[C@@H](O)[C@]5(C)[C@@H](C7=CC(=O)OC7)CC[C@]65O)C4)O[C@@H]3C)O[C@@H]2C)O[C@H](C)[C@H]1O[C@@H]1O[C@H](CO)[C@@H](O)[C@H](O)[C@H]1O (stereo partly specified)	-12	nt	-0.0042	29
c1ccc2c(c1)cc1ccc3cccc4ccc2c1c34	22	nt	-0.19	-17
OC(Cc1ccncc1)C(Cl)(Cl)Cl (stereo unspecified)	2	-1.5	0.062	-6
C=CCC1(C(C)CCC)C(=O)NC(=S)NC1=O (stereo unspecified)	-11	nt	0.18	4
CC(CO)NC(=O)C1C=C2c3cccc4[nH]cc(c34)CC2N(C)C1 (stereo unspecified)	-24	nt	0.42	-11

Compound profiles (already shown):
Results for CCCCOC(=O)c1ccccc1C(=O)OCc1ccccc1 : Hedgehog inh: -69; PD-1 reverse act: nt; YB-1 expression: 0.24; MITF inhib: -1
Results for c1ccc2c(c1)cc1ccc3cccc4ccc2c1c34 : Hedgehog inh: 22; PD-1 reverse act: nt; YB-1 expression: -0.19; MITF inhib: -17
